Screens as filed in PubChem BioAssay.
KCNQ2 inh: KCNQ2 channel blockers in CHO-K1 cells – cell-based, FluxOR thallium flux, B-score, primary screen (AID 2156). 20 min; hits give low values; only compounds with negative scores are shown here; some inactives read as strong as hits. O88943. B-score at 10 µM. 310,000 compounds, 1.1% hits;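 active = fluorescence ratio B-score at most minus 3 library SDs, with starting brightness B-score within 2 library SDs, cut at about -5.5 in these data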
Target sequence (O88943 whole entry, looked up): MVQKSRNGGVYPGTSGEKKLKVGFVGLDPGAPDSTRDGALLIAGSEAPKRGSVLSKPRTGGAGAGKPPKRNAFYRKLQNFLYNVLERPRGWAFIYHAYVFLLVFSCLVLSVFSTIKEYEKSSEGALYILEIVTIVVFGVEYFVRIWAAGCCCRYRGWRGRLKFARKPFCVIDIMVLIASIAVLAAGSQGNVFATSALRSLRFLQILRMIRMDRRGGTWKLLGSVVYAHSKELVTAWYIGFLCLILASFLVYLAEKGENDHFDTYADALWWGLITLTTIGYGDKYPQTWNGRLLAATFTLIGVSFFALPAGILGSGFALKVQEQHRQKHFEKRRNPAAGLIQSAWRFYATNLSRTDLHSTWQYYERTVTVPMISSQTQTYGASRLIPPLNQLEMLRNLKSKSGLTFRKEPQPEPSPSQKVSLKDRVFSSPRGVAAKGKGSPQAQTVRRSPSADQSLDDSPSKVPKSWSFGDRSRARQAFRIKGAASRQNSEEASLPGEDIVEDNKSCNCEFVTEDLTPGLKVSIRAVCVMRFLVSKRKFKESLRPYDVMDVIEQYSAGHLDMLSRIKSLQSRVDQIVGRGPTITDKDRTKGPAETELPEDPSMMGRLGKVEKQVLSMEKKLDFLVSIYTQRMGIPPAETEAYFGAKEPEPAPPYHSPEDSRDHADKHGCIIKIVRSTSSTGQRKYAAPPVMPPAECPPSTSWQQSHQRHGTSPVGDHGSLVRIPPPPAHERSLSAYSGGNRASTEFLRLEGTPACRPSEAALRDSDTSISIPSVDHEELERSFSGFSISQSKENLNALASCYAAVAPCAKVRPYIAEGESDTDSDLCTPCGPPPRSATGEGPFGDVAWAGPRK
KCNQ2 inh baseline: also measured in KCNQ2 inh; calls as there; B-score; measured here: initial fluorescence intensity artifact check;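 brightness before thallium and not channel activity; 0 = typical well and far values either way flag optical interference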
* = called active by the depositor; i = inactive. This is a subset; count on the stated rates, not on these rows.

SMILES	KCNQ2 inh	KCNQ2 inh baseline
Cc1ccc(-c2nc(CS(=O)(=O)CC(=O)NC3CCC(C)CC3)c(C)o2)cc1 (stereo not given)	i	0.01
Cn1c(-c2ccc3c(c2)OCO3)c(C(=O)O)c(=O)c2ccccc21	i	2.17
CCC(C)[C@H](NC(=O)[C@H](Cc1ccccc1)n1c(=O)[nH]c2ccccc2c1=O)C(=O)N1CCC(C(=O)O)CC1 (stereo not given in full)	i	-0.62
COc1ccccc1C(=O)N/C(=C/c1ccco1)C(=O)Nc1ccc(C(=O)O)cc1	i	-0.57
CCOC(=O)[C@@H]1[C@H]2COc3ccccc3[C@@H]2N2C(=O)N(c3ccc(F)cc3)C(=O)[C@@]12C	i	1.12
Cc1ccc(C2=NN(C(=O)CSc3nc4ncc(Cl)cc4[nH]3)C(c3ccco3)C2)cc1 (stereo not given)	i	0.23
O=c1[nH]c(=O)n(Cc2ccccc2)c2nc(-c3ccco3)cc(C(F)(F)F)c12	i	0.97
Cc1ccc(NC2=NCC(=O)N2c2ccc3c(c2)OCCO3)c(C)c1	i	0.44
Cc1ccc(C(=O)Nc2ccccc2C(=O)N2CCN(c3ccccc3)CC2)cc1	i	-0.41
Cc1ccc(-c2nnn(CC(=O)N(Cc3ccc(F)cc3)C(C(=O)NC3CCCC3)c3ccncc3)n2)o1 (stereo not given)	i	-0.23
COc1cccc(COC(=O)c2nn(-c3ccccc3)nc2N)c1	i	-0.72
O=C(c1ccc(CS(=O)Cc2ccc(Cl)cc2)o1)N1CCN(c2ccccc2F)CC1 (stereo not given)	i	-0.54
CCOc1ccccc1C1NC(=O)c2ccccc2O1 (stereo not given)	i	-0.18
CCc1nnc(NC(=O)CCC(=O)N2CCN(Cc3ccc(C)cc3C)CC2)s1	i	-0.1
CCc1ccc(OCc2n[nH]c(=S)n2Cc2ccccc2)cc1	i	0.43
O=c1c2sccc2nc(SCc2cc(=O)n3cc(Cl)ccc3n2)n1-c1ccc(F)cc1	i	-1.12
Cc1cc(C)nc(NS(=O)(=O)c2ccccc2)n1	i	-0.73
COC(=O)c1cc(OC)c(OC)cc1NCC(=O)Nc1ccc(OC)c(OC)c1	i	-0.48
CCOc1cc(CNCCCN2CCOCC2)cc(Br)c1OCC(=O)Nc1cccc(C(F)(F)F)c1	i	0.46
C#Cc1ccc(CN2CCC(Oc3ccc(C(=O)NCc4ccccn4)cc3)CC2)cc1	i	-2.34
Cc1c(NC(=O)C(C)Oc2cccc(Cl)c2)c(=O)n(-c2ccccc2)n1C (stereo not given)	i	1.09
O=C(NCCNC(=O)c1ccccc1)c1ccccc1	i	-0.63
O=C(O/N=C(\c1ccccc1)c1ccccn1)c1ccc(Cl)c(Cl)c1	i	0.13
COc1ccc2cc(C#N)c(Nc3cccc(F)c3)nc2c1	i	0.97
Cc1ccc2c(CN3C(=O)NC4(CCCCC4)C3=O)cc(=O)oc2c1C	-6.57*	0.03*
CCN1/C(=C2/SC(=S)N(NC(C)=O)C2=O)Sc2ccccc21	i	0.47
COc1ccccc1C(=O)N(Cc1nc(-c2ccc(Cl)cc2)no1)C(C)C	i	-1.28
Cc1ccc(C(=O)Nc2ccccc2N2CCCCC2)cc1	i	1.97
NS(=O)(=O)c1ccc(CNc2ncnc3sccc23)cc1	i	1.04
CC(OC(=O)c1cc[n+]([O-])cc1)C(=O)Nc1ccc(Cl)cn1 (stereo not given)	i	-0.15
CN(C(=O)COC(=O)CNC(=O)c1ccccc1Cl)c1ccccc1	i	0.2
CCC(C)(C)NC(=O)/C=C/c1cnc2ccccc2n1	i	0.32
CCOC(=O)C1=C(N)Oc2cc(O)ccc2C1c1cccc(Cl)c1 (stereo not given)	i	-0.9
CC(SC(=S)N1CCCC1)C(=O)O (stereo not given)	i	-1.64
CCOC(=O)N1CCN(S(=O)(=O)N2CCCC(C(=O)NCCCN3CCCCC3)C2)CC1 (stereo not given)	i	-0.22
CC(=C/c1ccccc1)/C=N/Nc1nc(N2CCCCC2)nc(N2CCCCC2)n1	i	0.65
COc1ccc(C(=O)c2ccc(OC)c(N)c2)cc1N	i	-0.14
CC(C)c1ccc(OCC(=O)N(c2ccccn2)C2CCCCC2)cc1	i	4.04
CC(C)(C)NC(=O)CSc1nc(-c2ccc(F)cc2)cs1	i	-0.9
CC(=O)Nc1ccc(/C(C)=N\NC(=O)c2ccc(-c3ccccc3)cc2)cc1	i	0.26
COc1cc(CNc2nc(C)c([N+](=O)[O-])c(C)c2C#N)cc(OC)c1	i	0.39
Cc1nn(-c2nc3ccccc3[nH]2)c(N)c1-c1ccc(Cl)cc1	i	1.25
CCOC(=O)N1CCN(c2cc(C)nc3nc(C)nn23)CC1	i	0.58
Cc1cc(C(F)F)n2nc(C(=O)Nc3ccccc3F)nc2n1	i	3.17
CCOc1ccc(/C=C2\SC(=S)N(C(C(=O)O)c3ccccc3)C2=O)cc1OC (stereo not given)	i	0.12
O=[N+]([O-])c1ccc(N2CCCCC2)nc1	i	2.36
Cc1ccc2[nH]cc(C(=O)CN3CCC4(CC3)OCCO4)c2c1	i	-2.73
CCOc1ccccc1NC(=O)c1oc2ccccc2c1NC(=O)C1CCCO1 (stereo not given)	i	-2.05
O=C(c1ccoc1)N1CCC2(CC1)Oc1ccc(F)cc1C(=O)C21CC(c2cccnc2)=NO1 (stereo not given)	i	-0.39
CC1=C(C(=O)OC2CCC(C)CC2)C(c2ccc(O)c([N+](=O)[O-])c2)NC(=O)N1 (stereo not given)	i	0.72
CCc1ccc(S(=O)(=O)N2CCN(Cc3ccco3)CC2)cc1	i	-0.82
CCn1cc(C(=O)NC2CCCc3c2cnn3-c2cccc(C)c2C)cn1 (stereo not given)	i	0.49
Cc1ccc(C(=O)Nc2ccncc2)c(Cl)c1	i	0.78
CC1(C)C2CC=C(/C=N/NC(=O)C(N)=O)C1C2 (stereo not given)	i	-0.34
O=C(CNc1n[nH]c(=O)[nH]c1=O)N/N=C/c1ccccc1	i	2.8
CCc1nc(C)c(C#N)c2cc(OC)c(OC)cc12	i	1.44
CCOc1ccc(-c2nnn(CC(=O)c3cc(OC)ccc3OC)n2)cc1	i	1.63
CCOc1ccc(NS(=O)(=O)c2cc3c(cc2C)N(C)CCO3)cc1	i	-0.09
CCOC(=O)c1cccc(NC(=O)CSc2nnc(C)n2Cc2ccccc2)c1	i	1.8
COc1ccc(-c2csc(/C(C#N)=C\c3ccc(OC)c([N+](=O)[O-])c3)n2)cc1	i	0.59

Taken from above for reference:
SMILES	KCNQ2 inh	KCNQ2 inh baseline
CCOc1ccc(/C=C2\SC(=S)N(C(C(=O)O)c3ccccc3)C2=O)cc1OC (stereo not given)	i	0.12
O=[N+]([O-])c1ccc(N2CCCCC2)nc1	i	2.36
Cc1ccc2[nH]cc(C(=O)CN3CCC4(CC3)OCCO4)c2c1	i	-2.73
CCOc1ccccc1NC(=O)c1oc2ccccc2c1NC(=O)C1CCCO1 (stereo not given)	i	-2.05
O=C(c1ccoc1)N1CCC2(CC1)Oc1ccc(F)cc1C(=O)C21CC(c2cccnc2)=NO1 (stereo not given)	i	-0.39
CC1=C(C(=O)OC2CCC(C)CC2)C(c2ccc(O)c([N+](=O)[O-])c2)NC(=O)N1 (stereo not given)	i	0.72
CCc1ccc(S(=O)(=O)N2CCN(Cc3ccco3)CC2)cc1	i	-0.82
CCn1cc(C(=O)NC2CCCc3c2cnn3-c2cccc(C)c2C)cn1 (stereo not given)	i	0.49
Cc1ccc(C(=O)Nc2ccncc2)c(Cl)c1	i	0.78
CC1(C)C2CC=C(/C=N/NC(=O)C(N)=O)C1C2 (stereo not given)	i	-0.34
O=C(CNc1n[nH]c(=O)[nH]c1=O)N/N=C/c1ccccc1	i	2.8
CCc1nc(C)c(C#N)c2cc(OC)c(OC)cc12	i	1.44
CCOc1ccc(-c2nnn(CC(=O)c3cc(OC)ccc3OC)n2)cc1	i	1.63
CCOc1ccc(NS(=O)(=O)c2cc3c(cc2C)N(C)CCO3)cc1	i	-0.09
CCOC(=O)c1cccc(NC(=O)CSc2nnc(C)n2Cc2ccccc2)c1	i	1.8
COc1ccc(-c2csc(/C(C#N)=C\c3ccc(OC)c([N+](=O)[O-])c3)n2)cc1	i	0.59

Remaining list, next part.
SMILES	KCNQ2 inh	KCNQ2 inh baseline
Cc1ccc(-c2nc3c(c(=O)[nH]c(=O)n3CC(C)C)n2CC(C)C)cc1[N+](=O)[O-]	i	1.4
Cn1c(=O)n(C)c2cc(S(=O)(=O)N3CCCCC3)ccc21	i	1.17
CC(C)(C)NC(=O)NC(=O)COC(=O)CNS(=O)(=O)/C=C/c1ccccc1	i	1.47
COC(=O)c1ccc(N2CCN(C)CC2)c(NC(=O)COc2ccccc2Cl)c1	i	-0.99
COc1ccc(/C=N/NC(=S)Nc2ccccc2)cc1COc1ccccc1F	i	-0.39
COC(=O)c1cccc(COC(=O)c2cc3ccccc3oc2=O)c1	i	0.03
Cc1ccc(-c2csc(-c3ccncc3)n2)cc1	i	-0.69
CCc1nnc(NC(=O)CCC(=O)N2CCN(CCc3ccccc3)CC2)s1	i	1.22
Cc1ccc(-n2c(-c3ccc(Br)cc3)c[n+]3c2CCc2ccc4cccnc4c2-3)cc1	-12.3*	0.03*
COCc1[nH]nc2c1C(c1ccc(F)cc1F)C(C#N)=C(N)O2 (stereo not given)	i	-0.06
COC(=O)c1ccc(CSc2nnc(N)s2)cc1	i	0.09
Cc1cccc(NC(=S)N(CCN2CCOCC2)Cc2ccccc2F)c1	i	1.21
Cc1nnsc1-c1c(C(=O)N2CCOCC2)c(C)nn1-c1ccccc1	i	-1.89
COc1ccc(/C=N/NC(N)=S)cc1	i	0.13
O=C(CCc1ccccc1)NNC(=S)NC(=O)c1ccccc1	i	-1.01
CCn1c(C)[n+](CC)c2ccc(S(=O)(=O)N(C)C)cc21	i	-1.83
O=c1[nH]c(C2CCCN(S(=O)(=O)c3ccccc3)C2)nc2c1nnn2Cc1ccc2c(c1)OCCO2 (stereo not given)	i	-0.17
CCOC(=O)CSc1nc(-c2ccccc2)cc(C(F)(F)F)n1	i	-0.84
N#CCCN1CCN(S(=O)(=O)c2cc(Cl)ccc2Cl)CC1	i	-0.6
O=C(Cc1sc(Nc2ccccc2)nc1-c1ccccc1)NCc1ccccn1	i	0.26
NS(=O)(=O)c1ccc(CCNC(=O)CSc2nc3ccsc3c(=O)n2CC(=O)O)cc1	i	0.07
COC(=O)C(CC(=O)c1cccc(OC)c1)c1ccc(F)cc1 (stereo not given)	i	0.67
Cc1ccc(C(=O)n2nc(C#N)c(C#N)c2N)cc1	i	-0.1
COc1ccc(C(=O)NCCc2nnc3ccc(SCC(=O)NCc4ccc(F)cc4)nn23)cc1	i	1.53
CCN1C(=S)N[C@@H](CCc2ccccc2)C(C(=O)OC)=C1C	i	-1.03
CCC1(c2ccccc2)NC(=O)N(CC(=O)NCc2ccc(OC)cc2)C1=O (stereo not given)	i	1.89
C=CCN(c1nc(C)cc(OC)n1)S(=O)(=O)c1ccc(C)cc1	i	-0.47
Cc1ccc(Nc2nc(/N=C/NO)n[nH]2)cc1C	i	-2.29
c1ccc(Cn2c(SCc3cn4cccnc4n3)nnc2-c2ccco2)cc1	i	1.44
NC(=O)N/N=C/c1c(O)ccc2oc3c(c12)CCCC3	i	-0.11
COc1ccccc1/C=N/Nc1nncc2ccccc12	i	-0.79
COc1ccc(CCNC(=O)CCCc2nnc3n(C)c(=O)c4sccc4n23)cc1OC	i	0.42
COc1c(C)cc(Br)cc1C(=O)O	i	-0.58
Cc1cc(C)c(NC(=O)COc2nncc3ccccc23)c(C)c1	i	0.77
CCn1ncc(/C=C/C(=O)c2ccccc2)c1C	i	0.97
Cc1cc(C(F)(F)F)n2nc(-c3cnn(C)c3C(F)(F)F)cc2n1	i	-0.37
Nc1ccc2oc(-c3cccs3)nc2c1	i	0.73
CC(NC(=O)CN1C(=O)COc2ccccc21)c1ccccc1 (stereo not given)	i	0.62
O=C(Cc1ccc(Cl)cc1)N1CCN(c2ccc(F)cc2)CC1	i	0.86
CCN(C(=O)Cc1c(C(=O)O)n(CC)c2ccccc12)c1cccc(C(F)(F)F)c1	i	-1.92
CC(C)Nc1nc(Oc2cccc(Cl)c2Cl)cc(C(F)(F)F)n1	i	0.53
Nc1nc(SCC(=O)N2CCCC2)[nH]c(=O)c1-c1ccccc1	i	-1.11
COC(=O)c1ccc(OCCCCN2CC(C)OC(C)C2)cc1 (stereo not given)	i	0.83
Cc1ccc([N+](=O)[O-])cc1NC(=O)C[n+]1ccccc1	i	0.68
COc1ccccc1NC(=O)/C=C/c1ccc2c(c1)OCO2	i	-0.23
O=C(O)C1C2C=CC(C2)C1C(=O)NCc1ccc2c(c1)OCO2 (stereo not given)	i	0.79
O=C(O)C1CC=CCC1C(=O)Nc1ccc2c(c1)OCCO2 (stereo not given)	i	0.62
Cc1cc(C)nc(SC/C=C/c2ccccc2)n1	i	-0.49
O=C(CCCOc1ccc(Cl)cc1)N1CCCCCC1	i	-1.8
NC1=NC(=Nc2ccccc2)c2ccccc21	i	-0.91
COc1nc(NCCC2=CCCCC2)nc(OC)n1	i	-0.22
O=C(NCCOc1ccccc1)C1CCC(=O)N(C2CCCCCC2)C1 (stereo not given)	i	-0.72
CC(CN1CCCCC1)C(=O)NNC(=O)C12CC3CC(CC(C3)C1)C2 (stereo not given)	i	0.18
Fc1ccc(Cn2nnnc2C(c2cccs2)N2CCCCCC2)cc1 (stereo not given)	i	-1.68
O=C(/C=C/c1ccco1)Nc1ccccc1N1CCOCC1	i	0.72
S=c1[nH]nc(-c2ccncc2)n1Cc1ccccc1	i	2.11
CC(=O)Nc1cccc(Oc2ccc([N+](=O)[O-])cc2Cl)c1	i	1.39
CC(C)CN=c1cc(-c2ccccc2)oc2ccc(Cl)cc12	i	-1.62
O=C(Cn1cnc2ccccc2c1=O)N1CCOCC1	i	0.51
COc1ccc(CCNC(=O)/C=C/c2ccc(OC)c(S(=O)(=O)N3CCOCC3)c2)cc1	i	-0.48
Cc1c(Cc2ccccc2)c(NCCCO)n2c(nc3ccccc32)c1C#N	i	-1.44
CSc1ccccc1C(=O)Nc1nc2ccccc2c(=O)[nH]1	i	1.66
Cn1ccnc1SCC(=O)Nc1sccc1C#N	i	0.02

Pulled by compound from above:
SMILES	KCNQ2 inh	KCNQ2 inh baseline
Cc1cc(C)nc(SC/C=C/c2ccccc2)n1	i	-0.49
CC(=O)Nc1cccc(Oc2ccc([N+](=O)[O-])cc2Cl)c1	i	1.39
